Marburg entry inh = Marburg virus entry inhibition; Potency, µM (titrated, usually from 37.8 µM), for inactives: at the top dose activity change, negative = inhibition, most hits filed as inhibitors; 1.8% of 300,000 active; AID 540276; Marburg virus pseudotyped entry inhibition, cell reporter; control for the full effect not named in the record; about a third of the inactives were read at about 46 µM; active = well fitted inhibition curve with a large enough effect; inconclusive = small, poorly fitted or top-dose-only effect, or effect the other way; inactive = flat fitted curve, though single readings scatter; tested in HEK293 cells; about a fifth of its hits are not listed in these tables; also: % is scaled to controls: 0 for no effect and ±100 for the full control effect; luciferase read-out
NS1 inh = inhibitors of influenza NS1 protein function; 0.4% of 270,000 active; Potency, µM (doses to about 46.1 µM), for the others: at the highest dose activity, positive = more growth; S. cerevisiae slowed by influenza A NS1, growth recovery by OD600; active means well fitted rising curve with a large enough effect; inconclusive means small, poorly fitted or top-dose-only effect; inactive means no such curve, though single readings can be large or run the other way; also: nearly all actives have a fitted effect of over 50% in size
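Compounds were scored for reversing the slow growth caused by influenza A NS1 in S. cerevisiae, measured by optical density at 600 nm. Assay medium contained 2% galactose at pH 6.0; NS1-free yeast of the same strain were the positive control.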
LASV entry inh = blocks Lassa virus binding to or entry into cells | 1.2% of 300,000 active | Potency, µM (doses to about 37.9 µM), for inactives: at the top dose activity change, negative = inhibition, usual class: inhibitors | Lassa virus pseudotype entry inhibition, cell reporter; control for the full effect not named in the record | AID 540256; active means well fitted inhibition curve with a large enough effect; inconclusive means small, poorly fitted or top-dose-only effect, or effect the other way; inactive means flat fitted curve, though single readings scatter; tested in HEK293 cells; also: % is scaled to controls: 0 for no effect and ±100 for the full control effect; nearly all actives have a fitted effect of over 50% in size; luciferase read-out
SARS PLP yeast = inhibitors of SARS-CoV papain-like protease in yeast. 0.19% of 330,000 active. S. cerevisiae expressing SARS-CoV PLpro, growth rescue; control for the full effect not named in the record. Potency, µM (series often up to 32.9 µM), without a hit: at the top dose activity, positive = growth rescue; active means well fitted rising curve with a large enough effect; inconclusive means small, poorly fitted or top-dose-only effect; inactive means no such curve, though single readings can be large or run the other way; also: 0% is about no effect; nearly all actives have a fitted effect of over 55% in size; growth read by luminescence after 48 h
Cruzain inh noDet = inhibitors of Trypanosoma cruzi cruzain without detergent | P25779 | purified cruzain, Z-FR-AMC fluorescence, no detergent | Potency, µM, inactives show max response, negative = inhibition, actives largely listed as inhibitors | 2.3% of 200,000 active;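 also: plate controls were enzyme without inhibitor for no effect and buffer without enzyme for full effect; nearly all actives have a fitted effect of over 40% in size; top concentration of the series not given in the record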
Target sequence (P25779 123-467 limits assumed): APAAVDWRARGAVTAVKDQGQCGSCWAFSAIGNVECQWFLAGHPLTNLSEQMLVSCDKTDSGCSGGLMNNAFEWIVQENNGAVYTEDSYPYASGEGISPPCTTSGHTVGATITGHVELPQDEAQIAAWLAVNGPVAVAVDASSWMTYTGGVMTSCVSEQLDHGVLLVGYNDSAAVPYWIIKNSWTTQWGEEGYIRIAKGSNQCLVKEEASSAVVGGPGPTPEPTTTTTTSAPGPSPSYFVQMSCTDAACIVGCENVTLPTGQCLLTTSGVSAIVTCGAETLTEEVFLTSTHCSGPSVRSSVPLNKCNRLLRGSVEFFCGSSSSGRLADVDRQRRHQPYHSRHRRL
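Detergent-free condition (0.00005% Triton X-100) in acetate buffer pH 5.5 with DTT. 1.5 nM enzyme and compound were pre-mixed 15 min, then 2 uM Z-FR-AMC substrate added; reaction progress from fluorescence change between first and third reads (60 s).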
Cruzain inh Det = blocks cruzain activity in presence of Triton detergent | P25779 | purified cruzain, Z-FR-AMC fluorescence, 0.01% Triton | Potency, µM, inactives show max response, negative = inhibition, most hits filed as inhibitors | 0.43% of 200,000 active | AID 1478;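 also: plate controls were neutral wells for no effect and buffer without enzyme for full effect; nearly all actives have a fitted effect of over 40% in size; top concentration of the series not given in the record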
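In this qHTS format, compounds are incubated with 1.5 nM cruzain for 15 min at room temperature before 2 uM Z-FR-AMC is added. Release of AMC is followed at 360/450 nm, and progress is taken as the 60 s fluorescence difference.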
StopGo reporter = FMDV 2A StopGo reporter, luciferase signal | human cells with a luciferase reporter of 2A StopGo recoding; control for the full effect not named in the record | Potency, µM (series often up to 57.9 µM), without a hit: at the highest dose signal change, negative = less light | 1.2% of 410,000 active | AID 1159524; active = well fitted falling curve with a large enough effect; inconclusive = small, poorly fitted or top-dose-only effect; inactive = no such curve, though single readings can be large or run the other way; tested in HEK293T cells; also: % is scaled to controls: 0 for no effect and ±100 for the full control effect; nearly all actives have a fitted effect of over 45% in size; luciferase light after 4 h
RE007 growth inh = less growth of the S. pombe RE007 Vpr strain; S. pombe RE007 Vpr strain, BacTiter-Glo ATP luminescence, 24 h; control for the full effect not named in the record; Potency, µM (highest dose often 92.2 µM), inactives show at the highest dose activity change, negative = less growth; 0.21% of 360,000 active; active = well fitted falling curve with a large enough effect; inconclusive = small, poorly fitted or top-dose-only effect; inactive = no such curve, though single readings can be large or run the other way;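 also: % is scaled to controls: 0 for no effect and ±100 for the full control effect; nearly all actives have a fitted effect of over 50% in size; the assay follows cell death caused by Vpr and the record does not say whether a fall means rescue or toxicity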
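Fission yeast RE007 carrying one integrated HIV-1 vpr copy, seeded at OD 0.01 in PMG+AL medium with 23 nL pinned compound. Grown 24 h at 30 degrees; viability read by BacTiter-Glo luminescence after 5 min.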
The depositor's hits bear a star; ? = inconclusive; nt = no result given; & = joins results of further samples; [ ] = dose if it differs, or a comment. Unless noted, calls follow the shape of the dose curve; as a rule, active = well fitted curve in the direction sought with a large enough effect; inconclusive = small, poorly fitted or top-dose-only effect, or another doubt; inactive = no such curve, though single readings can be large; an effect the other way counts as inactive or inconclusive. Potency is read from the fitted curve at half-maximal effect. Rows are unselected (roughly 4.7% active in at least one column).

SMILES	Marburg entry inh	NS1 inh	LASV entry inh	SARS PLP yeast	Cruzain inh noDet	Cruzain inh Det	StopGo reporter	RE007 growth inh
CCc1ccc(NC(=O)Nc2ccc3c(c2)N(C)C(=O)CS3)cc1	nt	-2%	nt	7%	-23%	-15%	-7%	-3%
CC(=O)Nc1ccc(NS(=O)(=O)c2ccc(-c3csc(C)n3)s2)cc1	2%[46.1 µM]	-2%	?	-1%	nt	nt	-4%	8%
Cc1ccc(C)c(Cn2c(=O)n(-c3ccc(CC(=O)NCc4ccco4)cc3)c(=O)c3sccc32)c1	5%	8%	nt	2%	?	-3.1%	0%	-6%
COc1cccc(N2CCN(CC(=O)NC(C)c3ccccc3)CC2)c1 (stereo unspecified)	4%[46.1 µM]	-1%	-31%[46.1 µM]	0%	nt	nt	-14%	-3%
Cc1ccc2nc(SCc3nnc(-c4ccccc4Br)o3)[nH]c2c1	-11%	-9%	-4%	-9%	20µM*	-30%	-19%	-9%
CSc1nc(O)c(Nc2ccccc2)c(=O)[nH]1	6%[46.1 µM]	nt	11%[46.1 µM]	nt	nt	nt	10%	16%
CCC(CC)C(=O)Nc1ccc(C(=O)c2ccccc2)cc1	3%	-22%	10%	2%	-11%	-1.8%	57%[activator]	8%
COc1cccc(NC(=O)Nc2cc(C)on2)c1	nt	-29%	nt	0%	nt	nt	58%[activator]	7%
O=C(CN1C(=O)C2CC=CCC2C1=O)NCc1cccs1 (stereo unspecified)	?	nt	-5%	6%	nt	nt	6%	14%
COCCN(C(=O)c1csnn1)C(C(=O)NC1CCCCC1)c1cccs1 (stereo unspecified)	-1%	-9%	3%	7%	5%	4.4%	17%	5%
O=C(CN1C(=O)NC2(CCCC2)C1=O)NCc1ccco1	?	nt	11%	1%	nt	nt	-18%	-26%
O=C(c1[nH]c2ccccc2c1Sc1ccc(Cl)cc1)N1CCCCC1	-1%[46.1 µM]	nt	26%[46.1 µM]	nt	-3%	-4.0%	81%[activator]	nt
COc1ccc(C2CC(=O)c3c(C)nc(N4CCN(c5ccccc5)CC4)nc3C2)cc1 (stereo unspecified)	-2%&-2%	-20%	-15%	3%	?	6.3%	-27%	0%
COc1ccc(NCc2nnc(SCC(=O)c3ccc(C)cc3)o2)cc1	-2%	13%	-14%	5%	-7%	-1.9%	-18%	?
CCCCn1c(N)c(N(CCOC)C(=O)c2cc(-c3ccc(OC)c(OC)c3)nc3ccccc23)c(=O)[nH]c1=O	-3%	nt	-15%	3%	nt	nt	-25%	-13%
COc1cc(/C=C/C(=O)O)cc(OC)c1OC	4%	-4%	nt	-1%	-8%	3.1%	-15%&5%	1%[18.4 µM]
O=C(NNc1nc2ccccc2o1)c1ccccc1	?	0%	?	-3%	nt	nt	?	-3%
CC(C)CCN1CCN(Cc2cc3ccccc3[nH]2)CC1CCO (stereo unspecified)	nt	3%	nt	-1%	nt	nt	-1%	5%
O=S(=O)(Nc1ccc(-n2cnnn2)cc1)c1ccccc1F	?	nt	-6%	5%	nt	nt	6%	-14%
COc1cc(CC(=O)N(CC(C)C)C2CCS(=O)(=O)C2)cc(OC)c1OC (stereo unspecified)	0%	nt	1%	12%	nt	nt	-10%	1%
Cc1ccc(OCC(=O)O)c(O)c1	?	nt	12%[46.1 µM]	nt	nt	nt	-9%	-1%
CS/C(=C/[N+](=O)[O-])Nc1cccc2c1C(C)CC2(C)C (stereo unspecified)	?	2%	-16%	-5%	nt	nt	0%	12%
N#C/C(=C(/O)CSc1nnc(Cc2cccs2)n1C1CCCCC1)c1nc2ccccc2[nH]1	?	18µM*	8%	6%	-25%	-12%	4%	-5%
Nc1nnnn1-c1cccc([N+](=O)[O-])c1	5%	nt	5%	nt	nt	nt	-9%	-29%
Cc1ccc(-n2nc(C)c3c(C)c(CCC(=O)NCc4cccc(Cl)c4)c(C)nc32)cc1C	-5%[46.1 µM]	nt	-3%[46.1 µM]	nt	-7%	1.7%	-18%	nt
CCCNC(=O)c1ccccc1NC(=O)c1ccccc1N(C)S(=O)(=O)c1ccc(C)cc1	?	2%	?	8%	12%	-6.1%	29%	5%
COc1ccc(-c2nn(-c3ccccc3)cc2CNC(C)Cn2cncn2)c(F)c1 (stereo unspecified)	4%[46.1 µM]	0%	4%[46.1 µM]	-1%	nt	nt	11%	-9%
Cn1nccc1C(=O)NCCN1C(=O)OC(C)(C)C1(C)O (stereo unspecified)	3%	4%	4%	-8%	-10%	3.4%	2%	1%
COCC(C)NC(=O)/C=C/c1ccc(OC)cc1 (stereo unspecified)	nt	4%	nt	0%	nt	nt	29%	8%
Cc1nnc(-c2cccc(Br)c2)c2cn(-c3cccc(Br)c3)nc12	?	8.9µM*	?	1%	-17%	1.6%	-18%	-12%
CSc1nc(Cl)c(Br)c(Nc2c[nH]c(=O)[nH]c2=O)n1	23%[46.1 µM]	nt	?	nt	nt	nt	-7%	4%
Cc1ccc(NC(=O)CSc2cn(CC(=O)N3CCCC3)c3ccccc23)cc1Cl	nt	nt	1%[46.1 µM]	nt	12%	-6.6%	-22%	nt
COc1ccc(NC(=O)c2oc3ccccc3c2NC(=O)Cc2coc3ccc(C)cc23)cc1	2%[46.1 µM]	nt	-20%[46.1 µM]	nt	25µM*	-4.6%	9%	nt
Cc1ccc(-n2nc3c(=O)n(CCCC(=O)NCCc4ccccc4C)nc(C)c3c2C)cc1	nt	14%	nt	0%	nt	nt	-22%	-6%
Cc1cccc(NC(=O)c2nc[nH]c2C(=O)NCC(=O)OCc2ccccc2)c1	nt	-35%	nt	3%	nt	nt	-19%	1%
CCc1cc(=O)oc2c3c(cc(OCC(=O)NCc4cccnc4)c12)OC(C)(C)CC3	nt	-12%	nt	10%	nt	nt	-14%	6%
CCc1ccccc1N1CC(C(=O)Nc2cc(C)on2)CC1=O (stereo unspecified)	-11%[46.1 µM]	1%	-7%	-2%	nt	nt	13%	1%
Cc1ccc(S(=O)(=O)/N=C(/c2ccc(F)cc2)N2CCCCC2)cc1	2%	-1%	10%	-1%	9%	-0.6%	-2%	-10%
CCN(C(=O)COC(=O)c1ccc(F)c(S(=O)(=O)N2CCOCC2)c1)C1CCS(=O)(=O)C1 (stereo unspecified)	5%	4%	-1%	14%	nt	nt	-9%	21%
COc1ccc(/C=N/Nc2cc(C)nc3ccc(Br)cc23)cc1	4.5µM*	-11%	?	-2%	nt	nt	-29%	-3%
Cc1cc(NC(=O)[C@H](C)NC(=O)c2ccco2)ccc1Br	nt	-3%	nt	-2%	nt	nt	3%	-6%
COc1ccc(OCCSc2nc(N)cc(=O)[nH]2)cc1	11%	6%	6%	-1%	nt	nt	-3%	8%
COc1ccc2c(=O)cc(C(=O)O)oc2c1	0%[46.1 µM]	nt	9%	0%	nt	nt	0%	4%
COC(=O)c1cc(Br)c(=O)n(CCc2ccc(F)cc2)c1	19%&19%[46.1 µM]	-10%	1%	9%	0%	3.3%	-25%	-9%
CCOc1ccc(S(=O)(=O)NNC(=S)Nc2ccc(Br)cc2)cc1	26%	14%	1%	7%	-24%	-5.1%	-26%	nt
O=C(c1ccc(N2CCCC2=O)cc1)N1CCCCCC1	21%[46.1 µM]	-1%	-2%	-8%	-1%	5.3%	12%	-6%
COc1ccc(NC(=O)C2Cc3ccccc3CN2C(=O)c2ccccc2)cn1 (stereo unspecified)	46%	-11%	-16%	-8%	-5%	0.1%	30%[activator]	17%
COc1ccc(N2CCN(C(=O)CCc3c(C)nc4cc(-c5ccc(Cl)cc5)nn4c3C)CC2)cc1	-1%[46.1 µM]	nt	7%[46.1 µM]	nt	-1%	-0.1%	-18%	nt
OCC(CO)(CO)N=Cc1c(O)ccc2ccccc12	-2%	-75%	-17%[14.3 µM]	-2%	-14%	-2.5%	-14%	?
COc1ccc(OC)c(CCNc2nc3cc(OC)c(OC)cc3c3nc(-c4cccnc4)nn23)c1	12%[46.1 µM]	nt	nt	nt	7%	1.9%	-10%	nt
CC(C)OCCCNc1nc(-c2ccccc2)nc2ccccc12	nt	-71%	nt	-9%	nt	nt	?	-14%
O=C(O)CCC(=O)NCc1ccc(C(=O)O)cc1	3%	-10%	7%	7%	-6%	4.2%	-3%	19%
COc1ccc(CCNc2nc(-c3ccco3)cc(C(F)(F)F)n2)cc1OC	-47%	-3%	11%	2%	?	-16%	?	-5%
Cc1ccc(NNC(=S)Nc2ccc(C(C)C)cc2)c(C)c1	?	10%	?	0%	12%	-8.8%	68%[activator]	-8%
C=CCN1CN(S(=O)(=O)c2ccc(OC)cc2)c2nc3ccccc3nc21	nt	-1%	nt	0%	nt	nt	-14%	3%
CCNc1nc(NCC)nc(N(CC)C(N)=S)n1	-5%	-8%	22%	0%	nt	nt	-19%	-2%
O=S(=O)(/N=C(/c1ccccc1)N1CCOCC1)c1ccc(Br)cc1	nt	-12%	nt	5%	nt	nt	4%	4%
Cc1ccc(NC(=O)/C=C/c2ccc([N+](=O)[O-])s2)cc1	14µM*	-14%	10µM*	-1%	32µM*	0.6%	0%	-15%
Cc1ccc(Sc2ncccc2COC(=O)Nc2c(C)cccc2C)cc1	-15%	12%	2.8µM*	-21%	1%	-1.3%	0%	-3%
Cc1ccc(NC(=O)CN2C(=O)C(c3ccc(F)cc3)=NC23CCCCC3)c(C)c1	-13%[46.1 µM]	nt	1%[46.1 µM]	nt	-14%	-5.8%	10%	nt
The results go on:
SMILES	Marburg entry inh	NS1 inh	LASV entry inh	SARS PLP yeast	Cruzain inh noDet	Cruzain inh Det	StopGo reporter	RE007 growth inh
CN(c1ccccc1)S(=O)(=O)c1ccc(C(=O)NCc2ccccc2F)cc1	8%	nt	?	0%	nt	nt	-23%	-15%
ClCc1nnc(-c2cc3c(s2)CCCC3)o1	16%[46.1 µM]	nt	-3%[46.1 µM]	?	nt	nt	-30%	-22%
COc1ccccc1NC(=O)/C=C/C(=O)O	nt	17%	nt	-1%	nt	nt	16%	2%
CC(NC(=O)CCCOc1ccc(Cl)cc1)c1ccccc1 (stereo unspecified)	2%	-23%	5%	-19%	-7%	-6.6%	-25%	0%
CN(C)c1ccc(C(c2nnnn2CCOC(=O)Nc2ccc(Cl)cc2)N2CCOCC2)cc1 (stereo unspecified)	-19%[46.1 µM]	?	17%	0%	?	-5.9%	-34%	1%
